Screening data as filed in PubChem BioAssay.
Methyltransferases: Primary Screen for Target Class Profiling of Small Molecule Inhibitors of Methyltransferases; purified enzyme, MTase-Glo SAH luminescence; stronger effect = lower value; calls only at 40 µM; 25,000 tested, 3.9% active; active = -50% or lower on at least one of six enzymes; inconclusive = the cases between; inactive = as a rule above -30% on all six;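 note: enzymes were COMT GAMT GNMT HNMT NNMT and PNMT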
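Each enzyme was assayed with SAM and its substrate. SAH formation detected by MTase-Glo luminescence; single-point 40 uM screen[…].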
Calls only; i = inactive; u = inconclusive; + = active, no number. % is set by controls: 0 for no effect and ±100 for the full control effect. These rows are one share of the data; count on the stated rates, not on these rows.

SMILES	Methyltransferases
COc1ccc(CNC(=O)CCn2ccc3cc(S(=O)(=O)N4CCCCC4)ccc32)cc1OC	i
CN(C)c1ccc(C2Nc3ccc4ccccc4c3C3=C2C(=O)CC(C)(C)C3)cc1Br (stereo not drawn)	u
Cc1sc(C)c(C(=O)NC2(c3ccc(C(=O)O)cc3)CC2)c1Cc1ccc(C(F)(F)F)cc1	i
Clc1ccc(-c2nnn3c2nc(NCc2ccc4c(c2)OCO4)c2ccccc23)cc1	i
O=C(C1CCc2nnc(-c3cccc(C(F)(F)F)c3)n21)N1CCCCC1 (stereo not drawn)	i
CCC1c2ccc(C)n2CCN1C(=O)Nc1ccccc1OC (stereo not drawn)	i
CCN1CCN(C(=O)Cn2nc(C)c3sc(-c4ccccc4)nc3c2=O)CC1	i
O=C(CCc1nnc2n(CCc3ccccc3)c(=O)c3ccccc3n12)NCCCN1CCOCC1	i
c1ccc(CN2CCn3c4c(c5ccccc53)CCCC42)cc1 (stereo not drawn)	i
CC(C)OCCCNC(=O)C1c2c(n(C)c3ccccc23)SCC(=O)N1c1ccccc1F (stereo not drawn)	i
CCCn1c(=O)c2ccc(C(=O)NC(C)C)cc2n2c(SCC(=O)Nc3cccc(Cl)c3)nnc12	i
Cc1cc(C)cc(N2C(=O)c3cc4sccc4n3CC2(C)C(=O)NC2CCCCCC2)c1 (stereo not drawn)	i
COc1ccc(-c2nc3c(C)cccc3cc2CN2CCC(O)CC2)cc1OC	i
CC1CCC(NC(=O)C2(C)Cn3c(ccc3-c3ccco3)C(=O)N2CCc2ccccc2)CC1 (stereo not drawn)	i
CCOc1ccc(C(=O)CSc2nnc3n(C)c(=O)c4ccc(C(=O)NC(C)CC)cc4n23)cc1 (stereo not drawn)	i
C[C@@H]1O[C@@H](O[C@H]2[C@@H]3C=CO[C@@H](O[C@@H]4O[C@H](CO)[C@@H](O)[C@H](O)[C@H]4O)[C@@H]3[C@@]3(CO)O[C@@H]23)[C@H](O)[C@H](OC(=O)/C=C/c2ccc(O)cc2)[C@H]1OC(=O)/C=C/c1ccc(O)cc1	i
COc1cccc(N2C(=O)c3cc4ccccc4n3CC2(C)C(=O)NC2CCCCCC2)c1 (stereo not drawn)	i
CN1CCc2ccccc2Cc2[nH]c3ccccc3c2CC1	i
CC1CCC(=O)CC(SCC(O)C(=O)O)CCC(=O)O1 (stereo not drawn)	i
CC(=O)O[C@@H]1C[C@@H](C)[C@](O)(CCC2=CC(=O)OC2)[C@@]2(C)CCCC(C)(C)C12 (stereo partly drawn)	i
CC1(C)C=Cc2c(ccc3c2N=C2C(C)(C)[C@@H]4C[C@]56CCCN5C(=O)[C@@]4(C[C@]23O)NC6=O)O1	i
O=C(Nc1ccc(N(Cc2ccsc2)C(=O)Cn2nnc3ccccc32)cc1)C1CC1	i
CCOC(=O)c1cc2n(n1)CC(C)(C(=O)NCCC(C)C)N(c1ccc(C)cc1C)C2=O (stereo not drawn)	i
O=C(Nc1cc(F)ccc1F)N1Cc2c(sc3c2CCCC3)-n2cccc2C1c1ccc(F)cc1 (stereo not drawn)	i
COc1ccccc1C(C)N(C)C(=O)c1cccc(CCC(C)(C)O)c1 (stereo not drawn)	i
C/C=C1\[C@H](O[C@@H]2O[C@H](CO)[C@@H](O)[C@H](O)[C@H]2O)OC=C(C(=O)OC)[C@H]1CC(=O)O	i
CC(=O)NC1C(OC2CCC3(C)C(CCC4(C)C3CC=C3C5CC(C)(C)CCC5(C(=O)O)C(O)CC34C)C2(C)C)OC(CO)C(O)C1O (stereo not drawn)	u
Cc1cc(C)cc(Nc2nc(C)cc(=O)n2CC(=O)Nc2cccc(C(F)(F)F)c2)c1	i
C=C1C(O)C[C@@H]2C(C(=O)O)=CO[C@@H](O[C@@H]3O[C@H](CO)[C@@H](O)[C@H](O)[C@H]3OC(=O)c3ccc(O)cc3)[C@H]12 (stereo partly drawn)	i
CCCc1nc2c3ccccc3n(CC(=O)N3CCN(c4ccccc4OC)CC3)c(=O)n2n1	i
CC(C)OCCCn1c(=O)c2cc(Cl)ccc2n2c(SCc3cccc(Cl)c3)nnc12	i
O=C(NCc1ccc(F)cc1)c1ccc2nnc(CC3CC3)n2c1	i
O=C(Nc1ccc([N+](=O)[O-])cc1Cl)c1cc(Cl)ccc1O	i
COC(=O)c1cc2n(n1)CC(C)(C(=O)NC1CCCCC1)N(c1ccc(C)c(Cl)c1)C2=O (stereo not drawn)	i
CCc1nnc(NS(=O)(=O)c2ccc(NC(=S)NC(=O)/C=C/c3ccc(F)cc3)cc2)s1	u
Cc1ncnc(N2CCN(C(=O)C3CCN(C(=O)C4CC4)CC3)CC2)c1C	i
Cc1cccc(CNC(=O)CCn2ccc3cc(S(=O)(=O)N4CCCC4)ccc32)c1	i
CC1(C(=O)NC2CCCCC2)Cn2c(nc3ccccc32)C(=O)N1Cc1ccco1 (stereo not drawn)	i
CCCN1C(=O)c2c(C(=O)NCc3ccc(N(C)C)cc3)ncn2CC1(C)C(=O)NCc1ccc(F)cc1 (stereo not drawn)	i
CN(C[C@@H]1COCCO1)S(=O)(=O)Nc1ccc2ccc3ncc(-c4cnn(C)c4)cc3c(=O)c2c1	u
COCCNC(=O)c1ccc(-c2ccc(N3CCCCC3)nc2)cc1	i
CCOC(=O)c1cc2n(n1)CC(C)(C(=O)NC1CCCC1)N(c1cccc(SC)c1)C2=O (stereo not drawn)	i
COC(=O)Cn1c(=O)oc2cc(S(=O)(=O)NCCN3CCOCC3)ccc21	i
CCC(C(=O)N1CCCn2nc(C(=O)Nc3ccccc3)cc2C1)n1cccn1 (stereo not drawn)	i
CCOc1ccc(CNC(=O)c2ncn3c2C(=O)N(C2CC2)C(C)(C(=O)NCc2ccccc2Cl)C3)cc1 (stereo not drawn)	i
CC(C)CNC(=O)c1ccc2c(=O)n(CC(C)C)c3nn(CC(=O)NC4CCCC4)c(=O)n3c2c1	i
O=C1Cc2c(-c3ccccc3OCc3ccccc3)n[nH]c2CN1Cc1ccccn1	i
Cn1nc2n(c1=O)CCC(NS(=O)(=O)c1cccnc1)CC2 (stereo not drawn)	i
Clc1ccc(C2Nc3ccc(Cl)cc3C3C=CCC32)cc1 (stereo not drawn)	i
CCNC(=O)[C@@H]1C[C@H](NC(=O)c2ccc[nH]2)CN1C(=O)Cc1cc(C)no1	i
CO[C@H]1CN(C2CCN(C(=O)C3CCN(C(C)=O)CC3)CC2)[C@H]1c1ccncc1	i
Cc1cccc(CN2CCCn3nc(C(=O)NC(C)Cc4ccco4)cc3C2=O)c1 (stereo not drawn)	i
O=S(=O)(c1ccc(Cl)cc1)c1nnn2c1nc(NCc1ccc(F)cc1)c1ccccc12	i
O=C(C=CC#Cc1cccc(NS(=O)(=O)c2ccccc2)c1)NO	u
Clc1ccccc1C1(c2ccnc(C3CC3)n2)CCNCC1	u
CC(C)Oc1ccc(CNC(=O)c2cc3n(n2)CC(C)(C(=O)NC2CCCCCC2)N(C)C3=O)cc1 (stereo not drawn)	i
CC(=O)Nc1c2n(c3ccccc13)CC(C)(C(=O)NC1CCCCC1)N(Cc1ccc(F)cc1)C2=O (stereo not drawn)	i
O=C(NCc1ccc(F)cc1)c1ccc2c(=O)nc3c(-c4cccc(F)c4)n[nH]n3c2c1	i
CC(C)CNC(=O)c1ccc2c(=O)n(C(C)C)c3nn(CC(=O)Nc4ccc(F)cc4)c(=O)n3c2c1	i
C=C1[C@@H]2CC[C@@H]3[C@@](CCC4C(C(=O)O)(C(=O)O)C[C@@H](O[C@@H]5O[C@H](CO)[C@@H](O)[C@H](O)[C@H]5OC(=O)CC(C)C)C[C@]43C)(C2)[C@H]1O (stereo partly drawn)	i

Gathered by group, the entries above containing an aryl methoxy group.
SMILES	Methyltransferases
COc1ccc(CNC(=O)CCn2ccc3cc(S(=O)(=O)N4CCCCC4)ccc32)cc1OC	i
CCC1c2ccc(C)n2CCN1C(=O)Nc1ccccc1OC (stereo not drawn)	i
COc1ccc(-c2nc3c(C)cccc3cc2CN2CCC(O)CC2)cc1OC	i
COc1cccc(N2C(=O)c3cc4ccccc4n3CC2(C)C(=O)NC2CCCCCC2)c1 (stereo not drawn)	i
COc1ccccc1C(C)N(C)C(=O)c1cccc(CCC(C)(C)O)c1 (stereo not drawn)	i
CCCc1nc2c3ccccc3n(CC(=O)N3CCN(c4ccccc4OC)CC3)c(=O)n2n1	i

Further entries:
SMILES	Methyltransferases
Cc1ccc(C)c(N2C(=O)c3cc4occc4n3CC2(C)C(=O)NC2CCCC(C)C2C)c1 (stereo not drawn)	i
CSCC1OC(n2cnc3c(=O)[nH]cnc32)C(O)C1O (stereo not drawn)	i
C/C=C/C=C/C=C/C(=O)O[C@@H]1[C@@H](OC)C2=C(C(=O)N(C(C)C(=O)O)C2)[C@@]2(C)CCCC(C)(C)[C@H]12 (stereo partly drawn)	i
CC(C)NC(=O)c1ccc2c(=O)n(C(C)C)c3nn(CC(=O)NCc4ccccc4Cl)c(=O)n3c2c1	i
CC1(C(=O)NCc2ccccc2)Cn2c(nc3ccccc32)C(=O)N1Cc1ccccc1Cl (stereo not drawn)	i
Cc1ccc(CN2C(=O)c3nc4ccccc4n3CC2(C)C(=O)NCc2ccccc2)o1 (stereo not drawn)	i
CC(C)CNc1ccnc(NCc2csc(-c3ccccc3)n2)n1	+
CC(=O)OC[C@]12[C@H](OC(C)=O)[C@H](OC(=O)c3ccccc3)[C@@H]3[C@@H](OC(C)=O)[C@]1(OC3(C)C)[C@H](C)C[C@H](OC(=O)c1ccccc1)[C@@H]2OC(=O)c1ccccc1	i
Cc1cccc(Cn2nc3n(C(C)C)c(=O)c4ccc(C(=O)NC5CCCCC5)cc4n3c2=O)c1	i
Cc1cccc(NC(=O)c2ncn3c2C(=O)N(C2CC2)C(C)(C(=O)NC2CCCC2)C3)c1C (stereo not drawn)	i
O=C(O)c1ccc(CN2CCC(CN[C@@H]3C[C@H]3c3ccccc3)CC2)cc1	u
COc1ccc(CN2C(=O)c3cc(-c4ccccc4)nn3CC2(C)C(=O)NCc2ccccc2)cc1OC (stereo not drawn)	i
COc1ccc(Nc2cnc3ccc(-c4ccc(F)cc4)nn23)cn1	i
CCCn1c(=O)c2ccc(C(=O)NC3CCCC3)cc2n2c(=O)n(Cc3cc(C)ccc3C)nc12	i
COc1ccc(N2C(=O)CSc3c(c4ccccc4n3C)C2C(=O)NCc2ccccc2)cc1OC (stereo not drawn)	i

Compounds listed so far that have a thiophene ring, fused or not (4):
SMILES	Methyltransferases
Cc1sc(C)c(C(=O)NC2(c3ccc(C(=O)O)cc3)CC2)c1Cc1ccc(C(F)(F)F)cc1	i
Cc1cc(C)cc(N2C(=O)c3cc4sccc4n3CC2(C)C(=O)NC2CCCCCC2)c1 (stereo not drawn)	i
O=C(Nc1ccc(N(Cc2ccsc2)C(=O)Cn2nnc3ccccc32)cc1)C1CC1	i
O=C(Nc1cc(F)ccc1F)N1Cc2c(sc3c2CCCC3)-n2cccc2C1c1ccc(F)cc1 (stereo not drawn)	i

Going on with the list.
SMILES	Methyltransferases
CCCn1c(=O)c2ccc(C(=O)NCC(C)C)cc2n2c(=O)n(CC(=O)Nc3ccc(C)c(C)c3)nc12	i
Cn1cc(-c2ccsc2)c2nc(CN3CCNC(=O)C3)cn2c1=O	i
CC(C)NCC1(COc2ccccc2)C[C@@H](O)[C@@H](O)C1 (stereo partly drawn)	i
CC(C)C1c2cccn2CCN1C(=O)Nc1ccc(Br)cc1F (stereo not drawn)	i
O=C(NC1CCCCC1)N1CCC(Cc2nc(-c3ccccc3)n[nH]2)C1 (stereo not drawn)	i
C=CC[C@@H]1CC=C[C@@H](C)N1C(=O)c1cc(OC)ccc1OC1CCN(C(=O)C2CC2)CC1	i
Cc1ccc(N2C(=O)c3cc4sccc4n3CC2(C)C(=O)NC2CCCCCCC2)cc1C (stereo not drawn)	i
CCOc1ccc(CN2C(=O)c3cc4sccc4n3CC2(C)C(=O)NC2CCCCCC2)cc1 (stereo not drawn)	i
CCCC1c2cccn2CCN1C(=O)Nc1cccc(OC)c1 (stereo not drawn)	i
CC(C)n1c(=O)c2ccc(C(=O)NC3CCCCC3)cc2n2c(=O)n(Cc3ccc(Cl)cc3)nc12	i
CN(C)CCCNC(=O)c1ccc(-c2cc(O)c3ncccc3c2)cc1	+
CC1CCC(NC(=O)C2(C)Cn3c(ccc3-c3ccccc3)C(=O)N2CC(C)c2ccccc2)CC1 (stereo not drawn)	i
CC1=NOC(C(=O)N2CCCn3nc(C(=O)NCCN(C)C)cc3C2)C1 (stereo not drawn)	i
C[C@@H]1CC[C@@]2(OC1)O[C@H]1C[C@H]3[C@@H]4CC=C5C[C@@H](O)CC[C@]5(C)[C@H]4CC[C@]3(C)[C@H]1[C@@H]2C	i
CC(O)c1cc2n(n1)CCN(S(=O)(=O)c1ccc3c(c1)NC(=O)CO3)C2 (stereo not drawn)	i
COc1ccccc1Oc1ccc(N(Cc2cccnc2)S(=O)(=O)CC(F)(F)F)cc1	i
Cc1nn2c(SCC(=O)Nc3cccc(F)c3)nnc2[nH]c1=O	i
COC(=O)CNC(=O)N1CCCC1c1nc(CCOCC2CC2)no1 (stereo not drawn)	i
CC1CCN(S(=O)(=O)c2ccc3c(ccn3CC(=O)NCc3cccc(Cl)c3)c2)CC1	i
O=C1CN(Cc2ccc(F)cc2Cl)S(=O)(=O)c2ccccc2N1Cc1ccc(Cl)cc1	i
O=C(NCC1CC1)C1CCc2ncc(-c3ccc(F)cc3)n2C1 (stereo not drawn)	i
Cc1cnc(CC2CCCN(C(=O)N(C)C)C2)n1C(C)C (stereo not drawn)	i
CCCn1c(=O)c2ccc(C(=O)NC(C)CC)cc2n2c(SCC(=O)NC(C)(C)C)nnc12 (stereo not drawn)	i
CN(C)c1ccc2c(c1)OC(N)=C(C#N)C2c1cccc(C(F)(F)F)c1 (stereo not drawn)	i
COc1c(C(CC(C)C)OC(C)=O)ccc(Oc2c(O)cc(C)cc2/C=C/C(C)=O)c1C(=O)O (stereo not drawn)	i
